Screening data (PubChem BioAssay)
Sa growth inh = S. aureus growth inhibition | S. aureus RN4220 growth, OD600, 20 h, 42 °C; hits give low values | relative growth, % (concentration not given with the values) | 170,000 compounds, 0.53% hits | AID 720641;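 active means growth at 42 °C up to 50% and 20 or more points under that at 30 °C, or under 10% at both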;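 further: 300 nL library stock went into each well; scaled to the means of positive and negative controls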
GIV Gai3 FP = inhibitors of GIV GBA-motif binding to rat Galpha-i3. P08753. Galpha-i3/FITC-GIV peptide fluorescence polarization, 90 min; hits give low values; scaled: aluminum fluoride 0%, vehicle 100%. percent of control (FP), % (concentration not given with the values). 210,000 compounds, 0.42% hits;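 active means replicate mean at 85% of control or lower, very high polarization wells dropped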;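 further: wells of about 15 µL received 100 nL stock; the first replicate is given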
Target sequence (P08753 whole entry, looked up): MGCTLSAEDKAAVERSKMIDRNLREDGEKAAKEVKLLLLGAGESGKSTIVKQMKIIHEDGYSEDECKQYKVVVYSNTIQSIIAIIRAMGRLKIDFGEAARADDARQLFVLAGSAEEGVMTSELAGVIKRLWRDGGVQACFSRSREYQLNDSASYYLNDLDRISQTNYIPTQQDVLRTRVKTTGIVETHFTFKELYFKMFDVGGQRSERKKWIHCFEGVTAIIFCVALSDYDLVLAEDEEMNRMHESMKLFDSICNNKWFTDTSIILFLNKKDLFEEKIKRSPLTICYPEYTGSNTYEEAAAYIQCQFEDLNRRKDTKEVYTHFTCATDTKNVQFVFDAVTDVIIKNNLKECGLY
HCMV NEC inh = cytomegalovirus nuclear egress complex inhibition | AID 1918969 | HTRF UL50-UL53 interaction, normalized percent inhibition | inhibition, % (no concentration beside the values) | 190,000 compounds, 0.15% hits;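 active means both replicates at 50% or more, plus weaker picks with an unusually low signal ratio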;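 further: stock transfer was 100 nL into about 20 µL; 0% = negative control wells and 100% = wells with untagged competitor protein; inactives centre near -12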
Sa growth inh second temp = further read-out of Sa growth inh, marked with its call; relative growth, %; measured here: growth at 30 °C;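 optical density after 20 h as mean of two plates; 100% = untreated growth and lower means inhibition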
The depositor's hits bear a star; nt = not tested or not shown. Hits appear at their usual frequency; any-hit rate near 0.83%.

SMILES	Sa growth inh	Sa growth inh second temp	GIV Gai3 FP	HCMV NEC inh
CC1CC(C)(C)NC(=S)N1CCCC(=O)Nc1ccc2c(c1)OCCO2 (stereo not given)	90	97	105	5
Cc1ccc(C(=O)OCCCCN2C(=O)c3ccccc3C2=O)cc1NC(=O)c1ccco1	99	92	nt	-19
N#CCc1ccc(N2C(=O)CCC2=O)cc1	116	84	105	-8
CCCc1cnc(N2CCOCC2)nc1	111	84	98	nt
NNC(=O)c1csc(CS(=O)(=O)c2ccc(Cl)cc2)n1	115	87	102	nt
Cc1cc(C)nc(SCCS(=O)(=O)Cc2ccccc2)n1	85	75	105	-30
C=C(C)CN(CC)Cc1ccc(C(=O)OC)cc1	101	99	105	-9
CCNC(=O)c1c(NC(=O)Cc2coc3ccc(CC)cc23)sc2c1CCCC2	100	84	109	-23
O=C(NCCO)c1cc2ccccc2c(=O)s1	93	91	102	nt
N#Cc1ccccc1COC(=O)c1ccc2c(c1)OCO2	95	89	nt	-5
CC(C)(CO)NC(=O)c1cc(-c2ccccc2F)no1	100	92	100	-8
O=C(Nc1ccc2cn[nH]c2c1)c1cccc(N2C(=O)CCS2(=O)=O)c1	nt	nt	112	-21
CN1CCCC(OC(=O)c2ccc(C#N)cc2)C1 (stereo not given)	78	87	nt	-4
Cc1ccc2c(=O)cc(C(=O)Nc3sc4c(c3C(=O)NCc3ccccc3)CCCC4)oc2c1C	115	89	100	-24
Cc1c2oc3c(C)ccc(C(=O)OC(C)C4NC(=O)C(C(C)C)N(C)C(=O)CN(C)C(=O)C5CCCN5C(=O)C(C(C)C)NC4=O)c3nc-2c(C(=O)OC(C)C2NC(=O)C(C(C)C)N(C)C(=O)CN(C)C(=O)C3CCCN3C(=O)C(C(C)C)NC2=O)c(N)c1=O (stereo not given)	-0.6*	-1.0*	nt	-34
COc1ccc(-n2c(=O)c(CCC(=O)NC3CC3)nc3ccccc32)cc1	102	95	nt	-41
C=CCN(c1ccccc1C1=N/C(=C\c2ccc(C)cc2)C(=O)O1)S(=O)(=O)c1ccc(C)cc1	106	88	101	-6
COc1ccc(CNC(=O)c2sc3nc[nH]c(=O)c3c2C)cc1	110	90	101	nt
CCn1c(C)c(C)c2cc(C(=O)NCCc3ccc(C)cc3)ccc21	98	92	108	nt
COc1ccccc1C(=O)NCc1ccc2[nH]c(C)cc2c1	86	72	103	-43
COc1ccc(/C=C2\SC(=O)N(CCCC(=O)N3CCOCC3)C2=O)cc1OC	nt	nt	107	-39
COc1ccc(C2C3=C(CC(c4ccccc4O)CC3=O)Nc3onc(C)c32)c(OC)c1 (stereo not given)	nt	nt	103	12
S=c1[nH]c(=S)c2cnc(N3CCc4ccccc43)nc2[nH]1	126	89	108	-17
O=C(CSc1nc2ccccc2c(=O)n1-c1ccccc1)N1CCC1	100	97	nt	-1
CC1=C(C(=O)Nc2cccnc2)C(c2ccc(Cl)cc2)n2nc(-c3ccccc3)nc2N1 (stereo not given)	90	86	107	-34
CCOC(=O)c1nc(-c2ccccc2)sc1-c1ccnn1C(=O)NC(C)C	92	93	103	4
CC(=O)Nc1ccc(Cc2nc(-c3cc4c(C)nn(-c5ccccc5)c4s3)no2)cc1	nt	nt	104	-15
CSc1ncc(Cl)c(C(=O)N2CCN(c3cccc(Cl)c3)CC2)n1	98	69	102	nt
CCc1ccc2occ(CC(=O)Nc3nnc(SC)s3)c2c1	107	86	103	-15
COc1ccc(CNC(=O)CN(c2ccc(OC)cc2)S(=O)(=O)c2c(C)[nH]c(=O)[nH]c2=O)cc1	106	95	107	10
Nc1nc(N)nc(SCC(=O)N2N=C3/C(=C/c4ccccc4)CCCC3C2c2ccccc2)n1 (stereo not given)	86	73	nt	-32
CN(C)S(=O)(=O)c1ccc2oc(SCC(=O)Nc3ccccc3F)nc2c1	86	87	nt	-25
CCCCCN=C(N)NN=Cc1c[nH]c2ccc(OC)cc12	92	49	nt	-84
CCCCn1c(CN2CCN(CC)CC2)nc2c1c(=O)[nH]c(=O)n2C	108	93	99	nt
O=C(Nc1ccc(Cl)cc1)C1CCCN(S(=O)(=O)c2ccc3[nH]c(=O)ccc3c2)C1 (stereo not given)	120	92	114	nt
COC(=O)c1cc(-c2ccc(OC)c(OC)c2)nc2ccccc12	105	86	102	-46
O=C(NCc1ccc(Cl)cc1)C1CCCN(c2ncnc3onc(-c4ccc(F)cc4)c23)C1 (stereo not given)	80	89	106	nt
CCOC(=O)c1cc(C)nc(Sc2ccccc2Cl)n1	107	99	101	-15
COc1ccc(S(=O)(=O)NCCc2cn3cccc(C)c3n2)cc1OC	72	85	108	-42
NNC(=O)C1CC2CC1CC2C(=O)NN (stereo not given)	68	96	nt	-3

The last 4 compounds of the section before lead into the next.
SMILES	Sa growth inh	Sa growth inh second temp	GIV Gai3 FP	HCMV NEC inh
O=C(NCc1ccc(Cl)cc1)C1CCCN(c2ncnc3onc(-c4ccc(F)cc4)c23)C1 (stereo not given)	80	89	106	nt
CCOC(=O)c1cc(C)nc(Sc2ccccc2Cl)n1	107	99	101	-15
COc1ccc(S(=O)(=O)NCCc2cn3cccc(C)c3n2)cc1OC	72	85	108	-42
NNC(=O)C1CC2CC1CC2C(=O)NN (stereo not given)	68	96	nt	-3
Cc1ccc(OCCn2nnc3sc4c(c3c2=O)CCC(C(C)(C)C)C4)cc1 (stereo not given)	101	95	102	-12
Cc1ccc(CS(=O)(=O)CC(O)COc2ccc(F)cc2)cc1 (stereo not given)	101	104	98	-7
Cc1c(NS(=O)(=O)c2cccc(C(=O)O)c2)c(=O)n(-c2ccccc2)n1C	107	93	105	-25
CCOC(=O)C1CCCN(C(=O)C2c3cc(OC)c(OC)cc3C(=O)N(C)C2c2ccc(OC)cc2)C1 (stereo not given)	87	83	101	-27
O=C(Nc1ccc(Cl)cc1F)c1nc(Nc2ccccc2)c2ccccc2n1	nt	nt	99	-7
COc1ccccc1CNC(=O)c1ncoc1-c1cccc(Cl)c1	nt	nt	109	-23
COc1cccc(C(=O)Nc2ccccc2N2CCCCC2)c1	91	89	nt	-12
O=C(CCCc1nc(-c2ccccc2)no1)Nc1ccc(S(=O)(=O)Nc2nccs2)cc1	nt	nt	106	-18
CN1CCN(C2Cc3ccccc3Sc3ccc(Cl)cc32)CC1 (stereo not given)	nt	nt	99	4
CC1CCN(C(=O)COC(=O)COc2ccc(Cl)cc2)CC1	115	94	nt	2
N#Cc1cc2c(nc1SCC(=O)c1ccccc1)CCCC2	103	88	nt	-18
NC(=O)C1(N2CCCCC2)CCN(C(=S)NCc2ccco2)CC1	91	99	103	-1
CCC1CCCCN1CCCNC(=O)c1ccc2c(c1)c(C)c(C)n2CC (stereo not given)	89	89	108	nt
COC(=O)CSc1nnc(CNC(=O)c2cccs2)n1-c1cccc(C)c1	95	77	110	nt
CC1(C)C/C(=N\NC(=O)CC#N)CCO1	98	92	104	0
Fc1ccc(-c2nc3cc(N=C/C=C/c4ccc5c(c4)OCO5)ccc3o2)cc1	96	88	102	nt
O=S(=O)(c1ccc(F)cc1)N1CC(OCc2ccc(F)cc2)C1	nt	nt	97	-15
CCC(C)NC(=O)C1CCN(S(=O)(=O)c2ccc3nc(-c4ccccc4)[nH]c3c2)CC1 (stereo not given)	122	91	99	nt
O=C1CCCC2=C1C(c1ccco1)c1c([nH]n(-c3ccccc3)c1=O)N2 (stereo not given)	109	91	110	-18
COCc1cc(C)c(C#N)c(=O)[nH]1	89	83	102	-5

Reprinted at random: three compounds from above
SMILES	Sa growth inh	Sa growth inh second temp	GIV Gai3 FP	HCMV NEC inh
O=C1CCCC2=C1C(c1ccco1)c1c([nH]n(-c3ccccc3)c1=O)N2 (stereo not given)	109	91	110	-18
COC(=O)CSc1nnc(CNC(=O)c2cccs2)n1-c1cccc(C)c1	95	77	110	nt
Cc1ccc(CS(=O)(=O)CC(O)COc2ccc(F)cc2)cc1 (stereo not given)	101	104	98	-7

Next entries.
SMILES	Sa growth inh	Sa growth inh second temp	GIV Gai3 FP	HCMV NEC inh
O=C(Nc1ccc2oc(-c3cccnc3)nc2c1)c1ccc(-c2ccc(Cl)cc2)o1	102	90	104	-43
CCCS(=O)(=O)c1csc(C(=O)OC)c1Cl	107	96	110	6
CSc1nc(-c2ccco2)nn1C(=O)c1ccc(C)cc1	92	78	99	-10
COc1ccc(-n2c(SCc3ccccc3F)nc3c([nH]c4ccccc43)c2=O)cc1	106	90	98	nt
Cc1cccc(C)c1Nc1c(CN2C(=O)c3ccccc3C2=O)nc2ccc(Br)cn12	98	97	104	nt
CC(C)c1ccc(N2CC(O)=C(c3nc4ccccc4n3C)C2=N)cc1	94	100	103	6
O=C(CSc1cccc[n+]1[O-])NCCCc1ccccc1	90	82	nt	-22
COc1ccc(CN(C)Cc2ccccc2)cc1	98	116	103	1
O=c1oc2ccccc2c2c1Sc1ccccc1N2	64	35	115	-43
CCOC(=O)Cn1cc2c(c1-c1ccccc1)c(=O)n(C)c(=O)n2C	110	89	106	-10
CCc1ccc(-c2cn3nc(N4CCC(C(=O)NCc5cccc(Cl)c5)CC4)sc3n2)cc1	nt	nt	103	-22
CCSc1ccc(NC(=O)Cc2ccccc2)cc1	109	103	100	-3
CCCC(=O)c1ccc(NC(C)=O)cc1O	97	79	104	1
Cc1ccc(NC(=O)C2COc3ccccc3O2)cc1Cl (stereo not given)	98	87	nt	-37
Cc1cc(C)nc(Nc2n[nH]c(-c3ccccc3C)n2)n1	111	88	102	nt
Cc1ccccc1Nc1nc(N)nc(CSc2nc(C)c(C)n2CC(C)C)n1	103	88	nt	-7
Cn1c2ccccc2c2nnc(NN)nc21	98	73	101	-63
CSc1ncccc1C(=O)OCC(=O)Nc1ccc(NC(C)=O)cc1	87	89	nt	-10
CC(C)N(C(=O)CSc1ccc(Br)cc1)c1ccccc1	109	109	nt	-14
CN(C)/C=N/c1nnc(SCC(=O)c2ccc(Cl)cc2)s1	92	91	105	-6
CCCc1nc(-c2ccccn2)[nH]c(=O)c1Cc1c(F)cccc1Cl	58	57	107	-27
COc1ccc(-n2cnc3ccccc3c2=O)cc1OC	87	83	nt	-10
CC(C)(C)NC(=O)CSc1nnc(Cc2ccc3c(c2)OCO3)n1C1CCCCC1	80	94	103	-18
COc1ccc(Br)c(C(=O)/C(C#N)=N/O)c1	86	83	102	-55
O=C(O)CSC1=NCCN1	87	80	101	-12
Cc1ccc(Cl)cc1NC(=O)c1ccc(NS(=O)(=O)c2cccc3cccnc23)cc1	107	106	101	-5
CCOc1ccccc1CN1C(=O)c2ccccc2C1C(=O)NCCc1ccccc1 (stereo not given)	90	86	104	-6
Cc1cc(Cl)ccc1NC(=O)c1cccc(NC(=O)N2CCSc3ncccc32)c1	124	94	108	nt
COc1cccc(CNC(=O)C2CCCN(c3nn4cc(-c5ccc(C)cc5)nc4s3)C2)c1 (stereo not given)	116	68	100	nt
Cc1onc(NC(=O)CSCC(=O)O)c1Br	101	88	101	-28
Cc1cc(NC(=O)CSc2nc(-c3cccc(F)c3)nc3c2c(=O)n(C)c(=O)n3C)no1	98	86	100	nt
CCOc1ccc(C2c3c(oc4ccccc4c3=O)C(=O)N2c2nnc(C)s2)cc1OC (stereo not given)	106	94	105	-34
COc1ccc(C2CC(=O)C3=C(C2)Nc2ccccc2NC3c2ccccc2OC(C)C)cc1OC (stereo not given)	nt	nt	104	-28
CCCc1nc2ccccc2n2c(-c3ccccc3)c3c(=O)n(C)c(=O)n(C)c3c12	111	105	108	nt
COc1ccc(C2CC(=O)C3=C(C2)Nc2ccccc2NC3c2cccc(C(F)(F)F)c2)cc1OC (stereo not given)	nt	nt	103	-8
CSc1scc(N)c1S(=O)(=O)C(C)C	90	91	121	38
Cc1nc2c(C(=O)NCc3ccccc3)c[nH]n2c(=O)c1Cc1ccccc1Cl	0.7*	-0.3*	103	nt
CCOc1ccc(NC(=O)N2CCCC2C(=O)O)cc1 (stereo not given)	nt	nt	104	-12
CC(C)NC(=O)CCc1nnc2n(Cc3ccc(Cl)cc3)c(=O)c3ccccc3n12	99	90	101	-15
COc1cc2cc(C)nc(C)c2cc1OC	100	92	102	nt

Entries of single compounds, looked up by structure:
Shown for Cc1cc(C)nc(Nc2n[nH]c(-c3ccccc3C)n2)n1 : Sa growth inh: 111; Sa growth inh second temp: 88; GIV Gai3 FP: 102; HCMV NEC inh: nt
Shown for CCOc1ccccc1CN1C(=O)c2ccccc2C1C(=O)NCCc1ccccc1 (stereo not given) : Sa growth inh: 90; Sa growth inh second temp: 86; GIV Gai3 FP: 104; HCMV NEC inh: -6

Going on with the list:
SMILES	Sa growth inh	Sa growth inh second temp	GIV Gai3 FP	HCMV NEC inh
CCCCN(C)Cc1cccc(OC)c1OC	108	82	104	-11
Cn1c(=O)c(Cc2ccccc2)c(OC(=O)c2ccccc2)c2ccccc21	104	100	106	3
CC1(C)Cc2ccccc2C(c2cc3ccccc3oc2=O)=N1	107	74	99	nt
CCOc1ccc(N=CC2=C(O)CC(c3ccco3)CC2=O)cc1 (stereo not given)	95	79	110	-22
Cc1ccc(C=C2C(=O)NC(=O)NC2=O)cc1	94	91	97	nt
COc1ccc(-n2c(C)nc3cc(C(=O)NC4CCCC4)ccc32)cc1	85	80	104	nt
Cc1cc(C)nc(NC(c2cccnc2)c2c(NC(=O)c3ccccc3)sc(C)c2C)n1 (stereo not given)	nt	nt	110	-17
